Sa ugtP lethal = kills S. aureus RN4220 lacking UgtP. S. aureus RN4220 ugtP deletion, OD600 growth, 16 h; some inactives read as strong as hits. growth inhibition, % (concentration not given with the values). hit rate 0.54% among 330,000. AID 1259309;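 active = z-score under -3 and OD600 up to 0.15 on both plates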;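 note: plate controls were untreated wells for no effect and antibiotic for full effect; wells of about 80 µL received 100 nL stock; the first replicate is given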
Sa RN4220 lethal = S. aureus RN4220 growth inhibition | OD600, 16 h | inhibition, % (test concentration not listed) | hit rate 0.33% among 330,000 | AID 1259311;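 active = z-score of -3 or lower and OD600 up to 0.18 on both plates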;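 note: plate controls were untreated cells for no effect and reference antibiotic for full effect; stock transfer was 100 nL into about 80 µL; one replicate is shown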
PrP UTR inh = suppresses PrP 5' UTR mRNA reporter expression; hit rate 0.35% among 340,000; cell-based PrP 5' UTR mRNA reporter, plate reader; inhibition, % (no concentration beside the values); AID 488862;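 active = every replicate at 50% or more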;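 note: 0 = median of the neutral control wells; tested in H4 reporter cells; numbers are from one replicate; inactives centre near -14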
BJeLR lethal = BJeLR cell viability loss; AID 1554; inhibition, % (no concentration beside the values); BJeLR (HRASV12) viability, CellTiter-Glo ATP luminescence, 48 h; reference of the scale not given here; hit rate 0.17% among 300,000;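 active = replicate mean above 50%; inconclusive = above 50% but judged a plate artefact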;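 note: 50 nL library stock added to about 25 µL; numbers are from one replicate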
Autofluor counter = counter-screen for toxin protease inhibitors: compound fluorescence; hit rate 3.1% among 360,000; AID 624483; fluorescence intensity (test concentration not listed); compound autofluorescence counterscreen, microsphere flow cytometry; stronger effect = higher value;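 active = at least 3 SD above the mean of all compounds, about 16000 in these data; inconclusive = too few beads counted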;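 note: 100 nL of 1 mM stock went into each well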
Mtb hypoxia inh = inhibitors of hypoxia-regulated fluorescent reporter in Mycobacterium tuberculosis; fluorescence inhibition, % (concentration not given with the values); M. tuberculosis hypoxia-regulated fluorescent reporter, fluorescence; hit rate 0.1% among 300,000; AID 1159583;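 active = 35 to 45% if threefold the growth effect, above 45% if 1.5-fold the growth effect; inactive = the rest, general growth blockers included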;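 note: wells of about 50 µL received 100 nL stock; 0% = vehicle wells and 100% = reference inhibitor wells; whole bacteria with a GFP reporter of the hypoxia response; strong numbers were not always called active; many hits fall short of the cut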
Mtb hypoxia inh growth = also measured in Mtb hypoxia inh; calls as there; growth inhibition, %; measured here: M. tuberculosis growth (absorbance);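 0% = vehicle and 100% = reference antibiotic; read after six days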
The depositor's hits bear a star; ? = inconclusive; nt = not tested or not shown. This is a random part of the collection. About 4% of those tested had a hit in this group.

Abbreviations: A = Sa ugtP lethal; B = Sa RN4220 lethal; C = PrP UTR inh; D = BJeLR lethal; E = Autofluor counter; F = Mtb hypoxia inh; G = Mtb hypoxia inh growth
> CCNc1nc(Oc2ccc(=O)n(-c3ccccc3)n2)nc(N2CCOCC2)n1
  A = 14	B = 20	C = -5	D = 6	E = 2893	F = 1	G = 3

> O=c1[nH]c(N2CCN(Cc3ccc4c(c3)OCO4)CC2)nc2c1CCCC2
  A = 22	B = 9.0	C = -13	D = 5	E = 4621	F = -5	G = -3

> O=C(NC(Cc1c[nH]c2ccccc12)C(=O)Nc1ccc(OC(F)(F)F)cc1)c1cccs1 (stereo not drawn)
  A = 0	B = -13	C = 18	D = 15	E = 2528	F = 6	G = 11

> CCOC(=O)C(=O)N/N=C/c1ccc(F)cc1
  A = nt	B = nt	C = -45	D = -12	E = 3748	F = nt	G = nt

> O=C1OCC2=C1C(c1ccccc1)CC(=O)N2c1ccccc1 (stereo not drawn)
  A = 5	B = 2.7	C = -39	D = -6	E = 2162	F = 5	G = 4

> COC(=O)Nc1nc(-c2ccccc2)c(C(=O)c2ccccc2)s1
  A = -15	B = 9.4	C = 25	D = 47	E = 2925	F = 5	G = 7

> COc1cccc(/C=C2\Oc3cc(OCC(=O)N4CCCCC4)ccc3C2=O)c1OC
  A = 11	B = -0.7	C = -19	D = 8	E = 5953	F = 10	G = 0

> Cc1nn(-c2ccccc2)c(NC(=O)c2cccs2)c(-c2ccccc2)c1=O
  A = 11	B = 5.0	C = -7	D = -8	E = 2447	F = 17	G = 11

> COc1cccc(C(=O)OCC(=O)c2[nH]c(C)c(C(C)=O)c2C)c1
  A = 0	B = 2.3	C = -12	D = nt	E = 5637	F = -1	G = -3

> C=C1CC2C(CCC3(C)C2CCC3(O)C(C)=O)C2(C)CCC(=O)C=C12 (stereo not drawn)
  A = 11	B = 8.2	C = -20	D = -4	E = 3358	F = 7	G = 7

> Cc1cccc2cc(/C=N/NC(=O)CN3CCOCC3)c(Cl)nc12
  A = nt	B = nt	C = -21	D = -12	E = 3383	F = nt	G = nt

> CCn1c(=O)c2c(nc3n2CCCN3CCc2ccc(OC)c(OC)c2)n(C)c1=O
  A = 18	B = 0.0	C = -24	D = 1	E = 3942	F = 10	G = 9

> O=C(Nc1ccc(S(=O)(=O)Nc2cnc3ccccc3n2)cc1)c1cccc(OC(F)F)c1
  A = 9	B = -2.5	C = -27	D = 3	E = 3460	F = -2	G = -8

> CCOc1cccc(C(=O)Nc2nnc(-c3ccco3)s2)c1
  A = -10	B = 3.9	C = -12	D = nt	E = 5125	F = nt	G = nt

> NC(=O)C1CCN(C2CC(=O)NC2=O)CC1 (stereo not drawn)
  A = 2	B = -0.2	C = -18	D = -7	E = 4296	F = 10	G = 5

> CCOc1ccc(CCNC(=O)CCC(=O)N2CCOc3ccc(C)cc32)cc1OCC
  A = -2	B = -5.0	C = 2	D = 0	E = 6952	F = 8	G = 4

> Cn1c(O)c(C=Nc2ccc(Cl)cc2)c(=O)n(C)c1=O
  A = 2	B = 2.7	C = -2	D = -5	E = 2807	F = nt	G = nt

> C[C@H](CO)N1C[C@H](C)[C@@H](CN(C)Cc2ccc(-c3ccccc3)cc2)Oc2c(NC(=O)c3ccncc3)cccc2C1=O
  A = -9	B = 10	C = -24	D = nt	E = 2979	F = 5	G = 5

> O=C(Cn1c(C(=O)OCCO)cc2ccccc21)c1ccccc1
  A = 10	B = -2.4	C = -21	D = -1	E = 3651	F = 6	G = 15

> O=C(NN=Cc1cccnc1)C(O)(c1ccccc1)c1ccccc1
  A = 1	B = 2.2	C = nt	D = nt	E = nt	F = 20	G = 8

> CC(=O)c1c(O)c2ccccc2n(C(C)C)c1=O
  A = 3	B = 4.1	C = -7	D = 6	E = 4002	F = 9	G = 11

> CCOc1ccc(C(=O)NCC(=O)NCC2CCCCC2)cc1OCC
  A = nt	B = nt	C = -18	D = -15	E = 3782	F = nt	G = nt

> Cn1c(=O)c2c(ncn2CC(=O)Nc2ccccc2N2CCOCC2)n(C)c1=O
  A = -7	B = -3.2	C = -18	D = 4	E = 7362	F = 1	G = 1

> CCN(CC)C(=O)CSc1nnc(COc2cccc(C)c2)n1C
  A = 8	B = 8.9	C = nt	D = 1	E = nt	F = 3	G = 2

> CC(=O)N(Cc1nc2sc(C)c(C)c2c(=O)[nH]1)C1CCCC1
  A = 3	B = -1.1	C = 9	D = 2	E = 4376	F = 13	G = -4

> O=C(N/N=C/c1ccco1)c1cccc(N2Cc3ccccc3C2)c1
  A = nt	B = nt	C = -21	D = 3	E = 5410	F = nt	G = nt

> CCCCc1cc(=O)oc2cc(OS(C)(=O)=O)ccc12
  A = 2	B = 3.9	C = -7	D = 5	E = 3161	F = -2	G = 3

> O=C(NCCNC(=O)c1ccc(-c2ccc(Cl)c(Cl)c2)o1)c1cnccn1
  A = 7	B = 2.5	C = -11	D = 6	E = 5006	F = 8	G = 2

> O=C(COC(=O)C12CC3CC(CC(C3)C1)C2)NCCc1ccccc1
  A = -2	B = 5.3	C = -19	D = -5	E = 9422	F = 6	G = 2

> COc1ccc(OC)c(NC(=O)CNC(=O)c2ccc([N+](=O)[O-])cc2)c1
  A = 5	B = 4.5	C = -6	D = -8	E = 3409	F = 8	G = 4

> Cc1nonc1NC(=O)CSc1nc2ccccc2cc1C#N
  A = -8	B = 2.0	C = -45	D = -5	E = 4079	F = 7	G = 6

> Cn1cc(Br)c(C(=O)n2cc(Br)cn2)n1
  A = 11	B = 2.5	C = -22	D = 5	E = 4977	F = -2	G = 1

> COc1cc(OC)cc(C(=O)NNC(=S)Nc2ccc(S(N)(=O)=O)cc2)c1
  A = nt	B = nt	C = -4	D = -2	E = 3583	F = nt	G = nt

> Cc1cc(C)cc(NC(=O)CSc2nc3c(oc4ccccc43)c(=O)n2-c2ccccc2)c1
  A = -6	B = -4.6	C = -19	D = -10	E = 2190	F = 0	G = 2

> O=C(CCc1nnc2ccc(N3CCC4(CC3)OCCO4)nn12)Nc1cc(F)ccc1F
  A = 7	B = 2.1	C = -11	D = -6	E = 5286	F = 4	G = -4

> Cc1ccccc1NC(=O)Cc1nnc(N)s1
  A = 9	B = 3.5	C = -33	D = -4	E = ?	F = -2	G = 5

> CCOc1ccc(Cn2c(=O)sc3ccccc32)cc1OC
  A = 9	B = 4.7	C = -12	D = 0	E = 4369	F = 17	G = 8

> N#CC(c1ccncc1)(c1ncc(C(F)(F)F)cc1Cl)N1CCOCC1 (stereo not drawn)
  A = 21	B = 6.8	C = -16	D = 4	E = 2810	F = 11	G = 9

> CC1CCN(c2c(NCC3CCC(C(=O)NCc4ccccc4Cl)CC3)c(=O)c2=O)CC1 (stereo not drawn)
  A = 6	B = -0.5	C = -7	D = 5	E = 5855	F = -2	G = -3

> COc1cc(NC(=O)c2ccc(Cl)cc2Cl)ccc1NC(=O)c1cccs1
  A = 8	B = 12	C = -5	D = -7	E = 4237	F = -3	G = -14

> CCOc1ccccc1-n1c(C)nc2cc(C(=O)O)ccc21
  A = 3	B = 9.5	C = -4	D = -4	E = 3058	F = -1	G = 8

> Cc1ccc(C(=O)NCC(=O)OCC(=O)Nc2cc(S(=O)(=O)N3CCOCC3)ccc2C)cc1
  A = 0	B = 0.0	C = -4	D = 10	E = 5776	F = -1	G = 12

> COc1ccc(CN(C)CC(=O)Nc2ccc(SC(F)F)cc2)cc1OC
  A = 7	B = 6.3	C = -12	D = 8	E = 3240	F = -2	G = 1

> CCOc1ccccc1N(CC(=O)Nc1cccnc1)S(C)(=O)=O
  A = -4	B = 7.4	C = -20	D = 0	E = 4229	F = 12	G = 5

> O=C(Cc1ccccc1F)Nc1ccccc1-c1ccccc1
  A = 4	B = 11	C = -30	D = -5	E = 4472	F = 6	G = 9

An excerpt from above in order of molar mass, largest number first:
Abbreviations: A = Sa ugtP lethal; B = Sa RN4220 lethal; C = PrP UTR inh; D = BJeLR lethal; E = Autofluor counter; F = Mtb hypoxia inh; G = Mtb hypoxia inh growth
> Cc1ccc(C(=O)NCC(=O)OCC(=O)Nc2cc(S(=O)(=O)N3CCOCC3)ccc2C)cc1
  A = 0	B = 0.0	C = -4	D = 10	E = 5776	F = -1	G = 12

> CC1CCN(c2c(NCC3CCC(C(=O)NCc4ccccc4Cl)CC3)c(=O)c2=O)CC1 (stereo not drawn)
  A = 6	B = -0.5	C = -7	D = 5	E = 5855	F = -2	G = -3

> Cc1cc(C)cc(NC(=O)CSc2nc3c(oc4ccccc43)c(=O)n2-c2ccccc2)c1
  A = -6	B = -4.6	C = -19	D = -10	E = 2190	F = 0	G = 2

> COc1cc(NC(=O)c2ccc(Cl)cc2Cl)ccc1NC(=O)c1cccs1
  A = 8	B = 12	C = -5	D = -7	E = 4237	F = -3	G = -14

> COc1cc(OC)cc(C(=O)NNC(=S)Nc2ccc(S(N)(=O)=O)cc2)c1
  A = nt	B = nt	C = -4	D = -2	E = 3583	F = nt	G = nt

> N#CC(c1ccncc1)(c1ncc(C(F)(F)F)cc1Cl)N1CCOCC1 (stereo not drawn)
  A = 21	B = 6.8	C = -16	D = 4	E = 2810	F = 11	G = 9

> Cn1cc(Br)c(C(=O)n2cc(Br)cn2)n1
  A = 11	B = 2.5	C = -22	D = 5	E = 4977	F = -2	G = 1

> Cc1nonc1NC(=O)CSc1nc2ccccc2cc1C#N
  A = -8	B = 2.0	C = -45	D = -5	E = 4079	F = 7	G = 6

> Cc1ccccc1NC(=O)Cc1nnc(N)s1
  A = 9	B = 3.5	C = -33	D = -4	E = ?	F = -2	G = 5

The results go on.
Structure,Sa ugtP lethal,Sa RN4220 lethal,PrP UTR inh,BJeLR lethal,Autofluor counter,Mtb hypoxia inh,Mtb hypoxia inh growth
COc1ccc(N2CCN(C(=O)CCC(=O)N3CCOc4ccc(C)cc43)CC2)cc1,0,-3.4,3,2,6297,2,-1
O=C(CCCN1C(=O)c2cccnc2C1=O)Nc1ccc(F)cc1Cl,3,1.6,4,1,3652,11,2
COc1ccccc1NC(=O)c1ccc2nc(C)c(C)nc2c1,3,4.0,-2,-5,6138,6,2
Cc1onc(-c2ccccc2Cl)c1C(=O)NC(=S)Nc1ccc(C(C)(C)C)cc1,16,-0.9,-13,10,4476,-9,-2
CCOc1ncccc1C(=O)Nc1ccc(S(=O)(=O)Nc2nccs2)cc1,5,2.9,-3,4,4555,17,12
Cc1ccnc(NC(=O)C2CCC(CNc3c(N4CCCC4)c(=O)c3=O)CC2)c1 (stereo not drawn),1,1.0,-32,-4,5986,6,1
CN1CCN(S(=O)(=O)c2cccc(C(=O)Nc3cccc(S(N)(=O)=O)c3)c2)CC1,1,3.6,-15,-7,6013,6,13
COc1cc(S(=O)(=O)NC(C)C)ccc1Cl,9,3.0,5,-3,8155,-3,2
O=C(COCC(=O)NCc1ccccc1)NCc1ccccc1,2,1.4,-63,9,4366,11,8
COc1ccc(CNC(=O)c2ccc(NC(=O)CC3SC(N4CCCCC4)=NC3=O)cc2)cc1 (stereo not drawn),-3,-1.4,-18,-5,2353,nt,nt
CN(C)/C=C(\C=O)c1ccc(Cl)cc1Cl,4,2.2,-3,-7,2671,6,-4
N#Cc1c(-c2ccc3c(c2)OCO3)ccn2nc(-c3cccc(C(F)(F)F)c3)nc12,1,5.1,-41,11,5088,-1,15
Cc1nn(-c2ccccc2)nc1C(N)=O,14,4.3,-12,0,?,3,-6
O=c1ccc2ccc(Oc3ccc([N+](=O)[O-])cc3Cl)cc2o1,2,4.5,-17,nt,4110,8,6
O=C(COC(=O)Cn1cnc2ccccc21)Nc1cccc2c1C(=O)c1ccccc1C2=O,10,23,-13,-26,2682,-9,-9
NC(=S)N/N=C1\CCOc2ccc(F)cc21,nt,nt,-7,-9,5939,nt,nt

Screening results deposited in PubChem BioAssay by several laboratories.
